# Screening data deposited in PubChem by National Center for Advancing Translational Sciences (NCATS).
# LT uptake inh: blocks cellular internalization of anthrax lethal toxin; AID 912; actives 0.67% (n = 70,000); Potency, µM (series often up to 40 µM), without a hit: at the top dose activity change, negative = inhibition, most hits filed as inhibitors; Cells, anthrax lethal toxin internalization, FRET ratio (460/530); active = well fitted falling ratio curve with the 530 nm signal flat; inconclusive = other ratio curves, or a change in one channel alone; inactive = flat curves in the ratio and both channels; the % refers to the ratio; note: % is set by controls: 0 for no effect and ±100 for the full control effect; nearly all actives have a fitted effect of over 50% in size; tested in ME-180 cells; beta-lactamase reporter
# Prx2 Sm inh: Schistosoma mansoni Prx2 inhibition; S. mansoni Prx2 activity coupled to TGR/GSH (TGR is thioredoxin glutathione reductase), NADPH fluorescence loss, qHTS; some inactives read as strong as hits; Potency, µM; actives 0.07% (n = 65,000); AID 448; active means full or partial inhibition curve with a strong effect at the top dose; inconclusive means weaker partial or single-point curve; inactive means no accepted curve; note: series up to 57 µM; many of its hits are not listed in these tables
#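 Purified S. mansoni TGR and Prx2 in pH 7.4 phosphate buffer with EDTA and Tween-20 were preincubated with compounds for 15 min. Further NADPH/GSH was added, then a 2.5 mM H2O2 aliquot initiated turnover, followed kinetically by NADPH fluorescence.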
# Active calls of the source: *; ? = inconclusive; · = not tested or not shown; [ ] = remark or other dose. Potency is the fitted concentration of half-maximal effect. Only part of the results is shown; the hit share may differ from the screen's.
smiles	LT uptake inh	Prx2 Sm inh
CC1CCc2cc(F)ccc2N1C(=O)c1cc2nc(-c3ccco3)cc(C(F)(F)F)n2n1 (configuration not stated)	0.0%	>57
CCOc1cc(NC(=O)c2ccco2)c(OCC)cc1NC(=O)COc1ccccc1C	-17.9%	>57
O=C(CCS(=O)(=O)Cc1ccccc1)Nc1nc2c(s1)CCCC2	-22.7%	>57
CC(C)=C[C@H]1[C@@H](C(=O)OCc2cc3c(cc2Cl)OCO3)C1(C)C	-15.8%[8 µM]	>57
CCn1nnc(NC(=O)CSc2ccc(Cl)cc2)n1	-14.0%	>57
CN1CCN(c2ncc3nc(-c4cn(C)c5ccccc45)c(=O)n(C)c3n2)CC1	?	>57
CCOC(=O)c1cccc(NC(=O)CN(c2ccc(OC)cc2)S(=O)(=O)c2c(C)noc2C)c1	-24.4%	>57
CCC(C)(C(=O)NC1CCCC1)N(CC1CCCO1)C(=O)CNC(=O)c1ccccc1 (configuration not stated)	-8.6%	>57
Clc1ccc(Cn2cccc2C2=NCCO2)cc1	?	>57
CCOc1cccc(N2C(=O)CC(n3cnc4ccccc43)C2=O)c1 (configuration not stated)	-11.5%	>57
Cc1cc(C(=O)Nc2cccnc2)on1	-1.7%	>57
CCN(CC)S(=O)(=O)c1ccc(C(=O)C(C#N)c2ccccn2)cc1 (configuration not stated)	?	>57
CCOC(=O)C1CCCN(C(=O)CNC(=O)Cn2ccc3ccccc3c2=O)C1 (configuration not stated)	-2.6%	>57
COCCN(C(=O)Cc1cccs1)c1nnc(-c2ccncc2)s1	-16.2%	>57
COc1cccc(N2CCN(C(=O)C3CCCN(S(=O)(=O)c4cnc[nH]4)C3)CC2)c1 (configuration not stated)	3.6%	>57
O=C(CN1C(=O)c2cccc3cccc1c23)Nc1cccnc1	-5.6%	>57
CCOc1ccc(NC(=O)c2ccccc2NC(=O)CN2CCN(C(C)=O)CC2)cc1	0.1%	>57
COc1ccc2c(c1)C(C)=CC(C)(C)N2C(=O)C(C)N1C(=O)c2ccccc2C1=O (configuration not stated)	7.3%	>57
Cn1c(=O)c2c(nc(N/N=C\c3ccccc3C(=O)O)n2C)n(C)c1=O	-6.0%[8 µM]	>57
CCNc1nc(NC(C)C)nc(Oc2ccc(OCCOc3ccc(C)cc3)nn2)n1	10.4%	·
O=C1Nc2ccc(S(=O)(=O)NCCC3=CCCCC3)c3cccc1c23	?	>57
c1ccc(-c2nc(-c3ccco3)cs2)nc1	-11.1%	>57
Cc1cc(C)cc(OCC(=O)Nc2ccc(N3CCN(S(C)(=O)=O)CC3)cc2)c1	?	>57
Cc1ccc(S(=O)(=O)N2CCC(C(=O)N[C@@H](C)C(=O)NCCc3ccccc3)CC2)cc1	0.1%	>57
CCOc1ccccc1N(CC(=O)N1CCCCCC1)S(C)(=O)=O	5.6%	·
COCCCN1C(=O)c2[nH]nc(-c3ccccc3O)c2C1c1cccc(Cl)c1 (configuration not stated)	?	>57
Cc1ccccc1-c1nc(CS(=O)(=O)CC(=O)NCc2ccccc2)c(C)o1	-18.4%	>57
C[N+](C)(C)CC#CCOC(=O)Nc1cccc(Cl)c1	-1.7%	>57
COc1cc2oc(-c3ccccc3)cc(=O)c2cc1O	?	>57
Cc1ccc(N2C(=O)c3ccccc3C2Nc2ccccc2F)nc1 (configuration not stated)	?	>57
COC(=O)c1cn(CC(=O)N2CCCCCC2)c2ccccc12	3.0%	>57
Cc1noc(C)c1COC(=O)CCOc1ccccc1	·	>57
Cc1nnc(SCC(=O)Nc2nc3c(s2)CC(C)CC3)s1 (configuration not stated)	-1.0%	>57
CCOC(=O)C1=C(C)Nc2ccccc2N=C1NC(=O)CCCN1C(=O)c2ccccc2C1=O	-1.8%	>57
CCOC(=O)C1=C(C)NC(C)=C(C(=O)OCC)C1C1=COCCO1	4.4%	>57
O=c1cc2n(c(=O)[nH]1)CCC1=C2CCCC1	·	>57
CCOC(=O)C(C(C)=O)=C1SC2CS(=O)(=O)CC2S1 (configuration not stated)	-12.8%	>57
Cc1ccc([C@@H](O)c2cnc(C)n2Cc2ccccc2)cc1	-8.8%[8 µM]	>57
CCCn1c(NC(=O)c2ccc(Cl)c(S(=O)(=O)N3CCCC3)c2)nc2ccccc21	?	>57
Cc1ccc(-c2nnc(SCC(=O)Nc3ccc(S(=O)(=O)N4CCCCCC4)cc3)o2)cc1	-11.2%	>57
CCOC(=O)Nc1cc2c(C)cc(=O)oc2cc1C	-9.2%	>57
CN(CCNC(=O)CN1CCN(Cc2ccccc2Cl)C1=O)Cc1ccccc1	-1.8%	>57
O=P(c1ccccc1)(c1ccccc1)C(c1ccco1)N1CCOCC1 (configuration not stated)	-0.6%	>57
O=C(Cn1nnc(-c2ccc3c(c2)OCO3)n1)N1CCOCC1	13.4%	>57
COc1ccccc1N1CCN(S(=O)(=O)c2ccccc2F)CC1	-6.0%	>57
Cc1cc(C)c(S(=O)(=O)N(C)Cc2cnn(C)c2)c(C)c1	?	>57
O=C(O)c1ccccc1C(=O)Nc1n[nH]c(=S)s1	-27.8%	>57
O=C(NCc1cccnc1)c1c(F)c(F)c(F)c(F)c1F	12.9%	>57
COC(=O)c1cc2c(=O)n3ccccc3nc2n(C(C)C)c1=N	?	·
Clc1ccccc1-c1nnc2sc(-c3ccc4c(c3)OCO4)nn12	-15.2%	·

# More results follow.
smiles	LT uptake inh	Prx2 Sm inh
C[C@H](N)c1nnc(SCc2ccc(Cl)cc2Cl)o1	-1.1%	>57
COc1ccc(C2=NOC(C(=O)NCc3ccc(F)cc3)C2)cc1OC (configuration not stated)	-19.0%	>57
CC(C)C12CN3CC(C(C)C)(CN(C1)C31C(=O)Nc3ccccc31)C2=O (configuration not stated)	-13.9%	·
O=C(CSc1nnc(Cc2ccccc2)o1)Nc1ccc(Br)cn1	·	>57
Cc1ccccc1OCCCN1CCCC1	-17.5%	·
CCNC(=O)CSc1nc2ccccc2c(=O)n1OC	-10.7%	>57
Cc1cc(=O)[nH]c2c(C)c(N)ccc12	?	>57
COc1ccc(-c2nc(-c3ccc(Br)o3)no2)cc1OC	?	>57
CCOC(=O)C1CCN(C(=O)c2cc3c(-c4ccc(OC)c(OC)c4)nn(C)c3s2)CC1	?	>57
Cc1[nH]n2c(=O)cc(C(C)C)nc2c1-c1ccccc1	6.4%	>57

# A draw from above in order of number of heavy atoms, rising.
smiles	LT uptake inh	Prx2 Sm inh
Cc1cc(=O)[nH]c2c(C)c(N)ccc12	?	>57
Clc1ccc(Cn2cccc2C2=NCCO2)cc1	?	>57
Cc1cc(C)cc(OCC(=O)Nc2ccc(N3CCN(S(C)(=O)=O)CC3)cc2)c1	?	>57

# The results go on:
smiles	LT uptake inh	Prx2 Sm inh
N[C@H](C(=O)O)[C@@H]1[C@@H](C(=O)O)C1(F)F	?	>25.6
CCOC(=O)N/N=C1/C[C@@H](O)[C@@H](O)[C@@H]2[C@@H]3C(=O)N([C@@H](C)c4ccccc4)C(=O)[C@H]3CC[C@@H]12	6.0%[8 µM]	·
CC1CCCCC1NC(=O)c1nn(C)c(=O)c2ccccc12 (configuration not stated)	-10.8%	>57
NCC(CC(=O)O)c1ccc(Cl)cc1 (configuration not stated)	?	>57
CC1(C)S[C@@H]2[C@H](NC(=O)Cc3ccccc3)C(=O)N2[C@@H]1C(=O)O	-1.1%[8 µM]	>57
O=C(COC(=O)c1cnccn1)Nc1ccc(Cl)cc1	4.1%	>57
Cc1ccc(C2C3=C(CC(C)(C)CC3=O)N(CCN3CCOCC3)C3=C2C(=O)CC(C)(C)C3)cc1	?	>57
O=C1C(O)CC2c3ccccc3CC3(CCCC3)N12 (configuration not stated)	1.3%	>57
CCOC(=O)CSc1nnc(-c2cccnc2)n1Cc1ccccc1	8.5%	>57
CC(=O)N1CN2CN(C(C)=O)CC(C(=O)c3ccc(Br)cc3)(C2)C1	2.5%	>57

# Continued; the last 4 above are carried over.
# Second line of a record – LT uptake inh | Prx2 Sm inh
- Cc1ccc(C2C3=C(CC(C)(C)CC3=O)N(CCN3CCOCC3)C3=C2C(=O)CC(C)(C)C3)cc1
  ? | >57
- O=C1C(O)CC2c3ccccc3CC3(CCCC3)N12 (configuration not stated)
  1.3% | >57
- CCOC(=O)CSc1nnc(-c2cccnc2)n1Cc1ccccc1
  8.5% | >57
- CC(=O)N1CN2CN(C(C)=O)CC(C(=O)c3ccc(Br)cc3)(C2)C1
  2.5% | >57
- CCOC(=O)N1CCC(NC(=O)c2cccc3c2C(=O)N(c2ccc(OC)cc2)C3)CC1
  -23.7% | >57
- COC(=O)Cn1c(=O)c2c(nc(Br)n2CC(=O)OC)n(C)c1=O
  21.6% | >57
- Cc1ccc(Oc2ccc(N)cc2)cc1
  3.7% | >57
- COc1cc(-c2nc(-c3cccc(C)c3)no2)cc(OC)c1OC
  ? | ·
- CCN(Cc1ccccc1)C(c1ccccn1)c1nnnn1C(C)(C)CC (configuration not stated)
  -28.1% | >57
- COc1ccc(C(CNC(=O)C2CC(=O)N(Cc3ccc(C)cc3)C2)N(C)C)cc1 (configuration not stated)
  -5.0% | >57
- CCOC(=O)c1cnn(-c2cc(C)c3ccccc3n2)c1N
  -0.1% | >57
- c1ccn2cc(CSC3=NCCS3)nc2c1
  ? | >57
- CC12CC(c3ccccc3O1)N(C(=O)c1ccco1)C(=O)N2c1ccccc1 (configuration not stated)
  -10.5% | >57
- CCC(=O)N1CCc2cc(S(=O)(=O)CCC(=O)Nc3cccc(F)c3)ccc21
  -22.3% | >57
- O=S1(=O)CCN=C2SC3=C(CCCC3)N21
  -4.1% | >57
- CC1(C)C(=O)Nc2ccccc2N1C(=O)COc1ncnc2ccccc12
  2.4% | >57
- COC(=O)C1=C(C)NC(C)=C(C(=O)OC(C)C)C1c1cccc2nonc12 (configuration not stated)
  ? | >57
- O=C(Cn1ncn2c(cc3ccccc32)c1=O)NCCC1=CCCCC1
  -13.5% | >57
- COC(=O)[C@@]1(Cc2ccc(F)cc2)[C@H]2c3cc(C(=O)N(C)C)n(Cc4ccc(Cl)c(C(F)(F)F)c4)c3C[C@H]2CN1C(=O)c1ccccc1
  ? | >57
- COCc1nnc(NC(=O)c2ccc(NC(C)=O)cc2)s1
  8.6% | >57
- O=c1c(-c2cc(F)cc(F)c2)nc2cnc(N3CCOCC3)nc2n1C[C@H]1CCCO1
  ? | >57
- CCc1[nH]nc2c1C(c1ccncc1)C(C#N)=C(N)O2 (configuration not stated)
  9.0% | >57
- Cc1cc(NC(=O)CSc2nnc(Cc3cccn3C)n2CCc2ccccc2)no1
  -12.8% | >57
- Cn1c(SCC(=O)NCCc2ccccc2)nnc1-c1ccncc1
  12.1% | >57
- COc1ccc(-n2c(=O)c(-c3ccc(Cl)cc3)nc3cnc(N(C)C)nc32)cc1
  ? | >57
- CC(C)(C)c1ccc(-c2conc2N)cc1
  · | >57
- C=CCn1c(SCC(N)=O)nnc1-c1ccccc1O
  8.2% | >57
- COC(=O)Nc1nc2ccc(Sc3ccccc3)cc2[nH]1
  ? | >57
- O=C(CN1CCCC1)NCC1(c2ccccc2)CCOCC1
  21.0% | >57
- CC(C)c1nnc(NC(=O)c2cccc(-n3cnnn3)c2)s1
  6.6% | >57
- CC(=O)Nc1ccc(N=Cc2ccc[nH]2)cc1
  -7.1% | >57
- CC1=CC(C#N)(C#N)C(C#N)(C#N)C(c2ccccc2)N1 (configuration not stated)
  -8.1% | >57
- O=C(O)CCCn1c(=O)[nH]c2ccccc2c1=O
  -14.4% | >57
- COc1ccc(OC)c(C2=NOC(C(=O)N3CCC4(CC3)OCCO4)C2)c1 (configuration not stated)
  7.1% | >57
- CCN(CC)C(=O)CSc1nnc([C@H](CCSC)NC(=O)OC(C)(C)C)o1
  -12.2% | >57
- Cc1ccc(-n2ncc3c(=O)n(CC(=O)NCc4ccco4)cnc32)cc1
  0.8% | >57
- Cn1c(C(=O)NCc2ccco2)cc2c(=O)[nH]c3ccccc3c21
  -5.2% | >57
- N[C@@](C(=O)O)(c1ccc(P(=O)(O)O)cc1)C1CC1
  -8.0% | >57
- CCOC(=O)c1sc(=NC(=O)c2cccc(OC)c2)n(C)c1C
  ? | >57
- Clc1cccc(Cl)c1
  23.1% | ·
- COc1ccc(CCNC(=O)c2cc3sc(Cl)cc3n2C)cc1OC
  ? | >57
- COC(=O)Cn1nnc(-c2cccc(OC)c2)n1
  -17.9% | >57
- CCc1ccccc1NC(=O)Cn1nnc(-c2cccnc2)n1
  11.0% | >57
- COc1ccccc1N1CCN(C(=O)CSc2nnc(NC(=O)c3ccco3)s2)CC1
  7.5% | >57
- COCC(=O)NCCNc1nc2ccc(C)cc2cc1C
  -14.6% | >57
- C[C@H](c1ccccc1)N1C(=O)[C@H]2[C@@H]3[C@H](O)[C@H](O)CC(=O)[C@H]3CC[C@H]2C1=O
  -7.2%[8 µM] | ·
- Cc1cccc(OCc2nnc(SCC(=O)Nc3ccc(C)c(C)c3)o2)c1
  ? | ·
- C=CCn1c(O)c(CN2CCOCC2)c(C)c(C#N)c1=O
  5.7% | >57
- CCOC(=O)c1c(-n2cnnn2)sc(C)c1C
  ? | >57
- CCCCN(Cc1ccccc1)c1ncnc2nc[nH]c12
  7.0% | >57
- COc1ccccc1-c1cc(C(=O)Nc2ccc(F)cc2F)no1
  -6.9% | >57
- COc1ccc(-c2noc(CCC(N)=O)n2)cc1OC
  · | >57
